ClpP mod – qHTS Assay for Activators of ClpP; purified B. subtilis ClpP, FRET peptide cleavage, 20 min; 1.9% of 340,000 active; AID 651965, 2013; ATP-dependent Clp protease proteolytic subunit (Bacillus subtilis (strain 168)), P80244; Potency, µM (titrated, usually from 57.5 µM), without a hit: top-dose activity change, negative = active; active = well fitted falling curve with a large enough effect; inconclusive = small, poorly fitted or top-dose-only effect; inactive = no such curve, though single readings can be large or run the other way; further: the source files actives as falling curves though it sought activators and does not explain the sign; nearly all actives have a fitted effect of over 65% in size; many hits overshoot -100%
Target sequence (P80244 whole entry, looked up): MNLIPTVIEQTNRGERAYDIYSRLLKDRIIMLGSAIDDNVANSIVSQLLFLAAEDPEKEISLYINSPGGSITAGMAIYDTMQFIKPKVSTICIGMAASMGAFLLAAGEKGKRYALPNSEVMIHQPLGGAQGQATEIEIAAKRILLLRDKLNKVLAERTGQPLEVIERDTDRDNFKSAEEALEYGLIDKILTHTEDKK
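Purified B. subtilis ClpP, 10 microg/mL final in Tris/HCl pH8 with KCl, BSA, glycerol and Tween-20, cleaved an Abz/nitrotyrosine-quenched decapeptide. Fluorescence (ex 320, em 430) was read at 0 and 20 min at room temperature. Delta was normalized to 5.8 microM ADEP and DMSO/no-enzyme controls.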
Numbers without * were called inactive; ? = inconclusive. Potency means the concentration at half of the fitted maximal effect. Only part of the results is shown; rates above refer to the full screens.

smiles | ClpP mod
COc1ccc(OCC(=O)Nc2nnc3n2CCS3)cc1 | -0.3%
O=C(Cc1ccc(F)cc1)Nc1nnc2n1CCS2 | -3.2%
COC(=O)[C@@]12C[C@@H](CC(=O)N3CCN(C(=O)C4CC4)CC3)C(=O)N(CCc3ccc(OC)c(OC)c3)C1=CCC(C)(C)C2 | -0.6%
O=C(C(=O)N1CCC(c2ccccc2)CC1)c1ccc(F)c(F)c1 | 0.3%
O=c1c2cc3c(cc2n(Cc2ccc(F)cc2)c(=O)n1Cc1nc(-c2ccccc2)no1)OCO3 | -3.1%
COc1ccc(Cn2ccc3nc(C)c(C(=O)Nc4ccc(OC)c(OC)c4)cc3c2=O)cc1 | -1.3%
CCC(Nc1ccc(-c2nc(-c3ccccn3)no2)cc1[N+](=O)[O-])c1ccccc1 (centres undefined) | -0.4%
COc1ccc(CN(Cc2ccccc2)C(=O)c2ccno2)cc1COc1ccc(NC(C)=O)cc1 | -1.0%
COc1cc(NC(=O)CCS(=O)(=O)c2ccc3c(c2)CC(=O)N3C)cc(OC)c1OC | 0.2%
CC(=O)ON(C(C)=O)c1ccc(/C=C2\C=Cc3ccccc32)cc1 | -1.1%
COC(=O)C[C@@H]1OC[C@H](C(C)C)N1S(=O)(=O)c1ccc(C)cc1 | -0.8%
COc1ccc(NC(=O)c2c(NCc3cccc(OC)c3)sc3c2CCCC3)cc1 | -0.2%
Cc1c(NC(=O)Cc2ccccc2)cccc1-c1nc2cccnc2s1 | -19%
Cc1ccc(-c2noc(CNC(=O)c3ccc(C)c(Cl)c3)n2)cc1 | -1.3%
Cc1cccc(-c2nc(CSc3nncn4c3cc3oc(C)cc34)c(C)o2)c1 | -12%
COc1ccc(-c2nc(C(=O)Nc3ccc(C(C)=O)cc3)nn2-c2cccc(Cl)c2)cc1 | -4.3%
CCOC(=O)CC1(CC)Oc2ccccc2N1S(=O)(=O)c1ccc(C)cc1 (centres undefined) | 0.8%
O=C(NCc1ccccn1)[C@@H]1CCCN1C(=O)[C@@H]1CCCN1C(=O)c1ccc(Cl)cc1 | 0.8%
CCCCNC(=O)CSc1nc2ccccc2nc1Cc1ccc(C)cc1 | 2.4%
CCOc1ccc(C2C(C(=O)Nc3ccccc3)=C(C)Nc3nc(-c4ccccc4Cl)nn32)cc1OC (centres undefined) | -18%
COc1cccc(CNC(=O)c2ccc(Cn3c(SCc4ccccc4)nc4cccnc43)cc2)c1 | 3.8%
Cc1cc(Br)ccc1NC(=O)C1(S(=O)(=O)c2ccc(Cl)cc2)CC1 | -0.2%
CCCCN(C)CCNC(=O)c1cc(=O)[nH]c2ccc(S(=O)(=O)N3CCCCCC3)cc12 | -1.0%
CC1(C)N=C(SCc2ccc(F)cc2)c2ccccc2N1 | -5.6%
COc1ccccc1Nc1nc(-c2ccccc2)c(CC(=O)O)s1 | -0.4%
Cc1noc(Cn2c(=O)c3ccccc3n(CC(=O)Nc3ccc(Cl)cc3)c2=O)n1 | -2.6%
CCOC(=O)[C@]12CCCC=C1N(Cc1cccc3ccccc13)C(=O)[C@H](CC(=O)NCCCN1CCCC1=O)C2 | -1.7%
COc1ccc(Cc2c(-c3cccc(Cl)c3)nc3cc(C)c(Br)c(C)n23)c(C)c1 | 0.6%
O=C(Nc1ccc2oc(-c3ccc(Br)cc3)nc2c1)c1cc2ccccc2o1 | -1.7%
COc1ccc(CCNC(=O)c2ccc(Cn3c(=O)c4ccccc4n(Cc4cccc(F)c4)c3=O)cc2)cc1OC | 35µM*

Reprinted at random: 4 records from the list.
smiles | ClpP mod
COc1ccc(-c2nc(C(=O)Nc3ccc(C(C)=O)cc3)nn2-c2cccc(Cl)c2)cc1 | -4.3%
COC(=O)C[C@@H]1OC[C@H](C(C)C)N1S(=O)(=O)c1ccc(C)cc1 | -0.8%
CCCCNC(=O)CSc1nc2ccccc2nc1Cc1ccc(C)cc1 | 2.4%
CCOC(=O)[C@]12CCCC=C1N(Cc1cccc3ccccc13)C(=O)[C@H](CC(=O)NCCCN1CCCC1=O)C2 | -1.7%

Some of the entries so far, as labelled records:
CCOC(=O)[C@]12CCCC=C1N(Cc1cccc3ccccc13)C(=O)[C@H](CC(=O)NCCCN1CCCC1=O)C2
  ClpP mod: -1.7%
COc1ccc(CN(Cc2ccccc2)C(=O)c2ccno2)cc1COc1ccc(NC(C)=O)cc1
  ClpP mod: -1.0%

More entries.
smiles | ClpP mod
COc1cccc(C(=O)N(Cc2cccnc2)c2nc3c(OC)ccc(C)c3s2)c1OC | -3.6%
O=C(Nc1cc(Cl)ccc1Cl)c1cc2nc(-c3ccc4c(c3)OCO4)cc(C(F)(F)F)n2n1 | -1.6%
Cc1ccc(NC(=O)Cn2c(=O)n(Cc3ccccc3)c(=O)c3c2c2cc(C)ccc2n3C)cc1 | ?
COc1ccc(OC)c(/C=C/c2c3ccccc3cc[n+]2C)c1 | -6.3%
CCc1ccc(C(=O)c2cn(CC(=O)NCc3ccc(C)cc3)c3nc(C)ccc3c2=O)cc1 | -2.6%
COc1ccc(C2NC(=O)N(C)C3=C2C(=O)N(c2ccc(C(=O)O)cc2)C3)cc1 (centres undefined) | 4.1%
Cc1cc(C(=O)NCCc2ccc(Cl)cc2)c2c(C)nn(-c3cccc(F)c3)c2n1 | 9.7%
Cc1cccc(-n2c3c(cc(-c4nc(-c5ccc(Cl)cc5)cs4)c2=O)C(=O)CC(C)(C)C3)c1 | ?
CC(=O)c1ccc(S(=O)(=O)Nc2cccc(-c3ccc(N4CCCC4)nn3)c2)cc1 | 1.6%
N#Cc1ccc2[nH]cc(C3c4cc(F)ccc4C=C(c4ccsc4)N3c3ccc(C#CCCO)cc3)c2c1 (centres undefined) | 38%
COC(=O)c1ccc(-c2nc(-c3ccc(OC)c(OC)c3)no2)cc1 | 0.8%
CCOc1cc2[nH]c(=O)n(Cc3ccc(C(=O)N4CCN(c5cccc(Cl)c5)CC4)cc3)c(=O)c2cc1OCC | -13%
CC1CCN(c2nc3c(S(=O)(=O)c4ccccc4)nnn3c3ccc(Cl)cc23)CC1 | 4.1%
CCCCc1c(-c2ccccc2OC)ncn1CCc1cccc(Cl)c1 | -5.3%
O=C(NCCc1ccccc1Cl)c1sc2ncccc2c1-n1cccc1 | -4.5%
CCC(=O)Nc1ccc(C)cc1-c1nc2ccccc2n(Cc2ccccc2)c1=O | 0.7%
CCOC(=O)c1cc2c(=O)n3ccccc3nc2n(CC2CCCO2)c1=NC(=O)c1cc(C)cc(C)c1 (centres undefined) | 4.6%
O=C(Nc1nnc2n1CCS2)c1ccccc1 | 0.4%
Cc1cnc2ccccc2c1C | 0.1%
CSc1nc(-c2ccccc2Cl)nc2c1Cc1c(CO)cnc(C)c1O2 | -2.7%
CCOC(=O)[C@]12CCCC=C1N(Cc1cccc3ccccc13)C(=O)[C@H](CC(=O)NCc1cccs1)C2 | -3.2%
Cc1ccc2oc(C(=O)Nc3ccc(S(=O)(=O)N4CCCCC4C)cc3)cc(=O)c2c1 (centres undefined) | -23%
Cc1cccc(C)c1OCc1cc(=O)n2c3c(sc2n1)CCCC3 | 4.4%
O=C1SC(Nc2ccc(Cl)cc2)C(=O)N1Cc1ccccc1 (centres undefined) | -7.1%
CCOc1ccccc1N(CC(=O)N1CCc2ccccc2C1)S(=O)(=O)c1ccccc1 | -1.9%
O=C1NC[C@H](CCCCN2CCN(CCc3ccccc3)C(=O)C2=O)N(CCc2ccc(O)cc2)C1=O | -0.5%
COc1ccccc1NC(=O)CN1C(=O)C(C)(C)c2ccccc21 | -0.4%
CCOc1ccc2c(c1)c(=O)c(C(=O)c1ccccc1)cn2Cc1ccccc1F | -0.1%
CCOC(=O)[C@]12CCCC=C1N(Cc1ccco1)C(=O)[C@H](CC(=O)NCc1ccc(OC)c(OC)c1)C2 | -0.4%
O=c1c2oc3ccccc3c2n(Cc2ccccc2F)c(=O)n1Cc1ccc2c(c1)OCO2 | 25µM*
CC1CCCCN1Cc1c(O)ccc2c(=O)c(-c3cccc(Cl)c3)c(C(F)(F)F)oc12 (centres undefined) | -3.5%
COc1ccc(S(=O)(=O)N2CCC(Oc3cccc(C(F)(F)F)c3)CC2)cc1OC | 0.9%
Cc1ccc(CNC(=O)CSc2ncc3c(n2)-c2ccc(Cl)cc2N(Cc2ccccc2)S3(=O)=O)cc1 | -10%
COc1cccc(C2=C(C(C)=O)Sc3nnc(C4CCCCC4)n3N2C(C)=O)c1 | 0.4%
CCCNC(=O)Cn1nc(C)c2c(C)n(-c3ccccc3)nc2c1=O | -7.4%
Cc1sc2ncn(CC(=O)N3CCN(c4ccc(Cl)cc4)CC3)c(=O)c2c1S(=O)(=O)N1CCN(c2ncccn2)CC1 | -7.8%
Cc1cccc(C)c1NC(=O)C(c1ccc(C(F)(F)F)cc1)n1c(=O)c(-c2ccccc2)nc2ccccc21 (centres undefined) | 1.4%
COc1ccc(Cn2cc(CN3CC(N4CCCCC4)CS3(=O)=O)nn2)cc1 (centres undefined) | 2.1%
CCc1cccc(N2C(=O)CSC23C(=O)N(Cc2ccccc2F)c2ccccc23)c1 (centres undefined) | -0.4%
COc1ccc(-n2nc(C(=O)N3CCCCC3C)c3c4ccccc4n(C)c3c2=O)cc1Cl (centres undefined) | -17%
CCOc1ccc(N(C)C(=O)C2CCN(S(=O)(=O)c3ccc4c(c3)CCCN4C(C)=O)CC2)cc1 | -1.0%
CCOC(=O)c1cnc2ccc(OC(F)(F)F)cc2c1Nc1ccccc1C(=O)O | 0.3%
Cc1cc(C)cc(OCc2cc(=O)n3c4c(sc3n2)CCCC4)c1 | -2.5%
Cc1ccc(CCNC(=O)c2ccc3c(c2)N(Cc2ccc(F)cc2)CCS3)cc1 | 3.9%
Cc1ccc(CNc2ncnc3[nH]ncc23)o1 | -1.0%
O=C(CSc1n[nH]c(-c2ccccc2)n1)NCCCc1ccccc1 | -0.2%
Cc1cccc(-n2c(=O)c3c(c4cc(C)ccc4n3C)n(CC(=O)Nc3ccccc3Cl)c2=O)c1 | ?
CCCCN(CC)C(=O)CCn1c(=O)c2cccn2c2cccnc21 | -13%
COc1ccc(C2c3c(oc4ccc(F)cc4c3=O)C(=O)N2Cc2ccc3c(c2)OCO3)cc1 (centres undefined) | 0.1%
CCOC(=O)[C@]12CCC=C1N(CCC1=CCCCC1)C(=O)[C@H](CC(=O)NCc1cccc3ccccc13)C2 | -8.0%
Cc1cc(C)c(NC(=O)CSc2cn(CC(=O)N3CCOCC3)c3ccccc23)c(C)c1 | -1.9%
CN(Cc1ccccc1)c1nc2c(S(=O)(=O)c3cccc(Cl)c3)nnn2c2ccsc12 | -4.0%
CCOC(=O)c1ccc(NC(=O)CCc2c(C)nc3c(-c4ccc(F)cc4)c(C)nn3c2C)cc1 | -1.3%
Cc1ccc2c(=O)cc(C(=O)Nc3ccc(S(=O)(=O)N4CCCC(C)C4)cc3)oc2c1C (centres undefined) | -1.8%
Cc1cccc(C)c1NC(=O)CCSCCc1ccccn1 | -1.3%
Cc1nnc(C)n1-c1ccc(C(=O)Nc2cccc(Br)c2)cc1 | -0.3%
CCCOC(=O)c1cccc(NC(=O)c2c(-c3ccccc3Cl)noc2C)c1 | -4.2%
O=S(=O)(c1ccc(C(F)(F)F)cc1)N1CCN(c2nc(-c3ccccc3)nc3ccccc23)CC1 | ?
COc1ccc(/C=C(/C#N)c2nc(-c3ccc(-c4ccccc4)cc3)cs2)cc1OC | -3.2%
CCCN(CCC)c1ccc(/C=C/c2ccnc3ccccc23)cc1 | -1.0%

The listing continues:
smiles | ClpP mod
CCn1c(C(=O)NCc2ccccc2)cc2sc(Cl)cc21 | -2.2%
Cc1cc(C)n(-c2nc(C)c(C)c(=O)n2CC(=O)Nc2cccc([N+](=O)[O-])c2)n1 | 3.1%
CC1CCc2c(sc(NC(=O)CCCOc3ccc(C(C)(C)C)cc3)c2C(N)=O)C1 (centres undefined) | 0.7%
CCCN(C(=O)c1cc2c(=O)oc3ccccc3c2s1)c1ccc(CC)cc1 | -0.8%
COC(=O)c1sccc1S(=O)(=O)N1CCN(c2ccc(C)cc2C)CC1 | -1.7%
COC(=O)[C@@]12C[C@@H](CC(=O)NCCC(C)C)C(=O)N(Cc3ccc4c(c3)OCO4)C1=CCC(C)(C)C2 | 1.6%
COc1ccc(-n2ncc3c2ncn2nc(COc4ccc(Cl)cc4)nc32)cc1 | ?
COc1ccc(-c2cn3c(C)c(C(=O)Nc4cc(C)cc(C)c4)sc3n2)cc1 | ?
Cc1ccc(-c2nc3ccccc3s2)cc1NC(=O)COc1ccccc1 | 3.3%
CCCn1c(=NC(=O)c2cc3ccccc3o2)c(C(=O)OCC)cc2c(=O)n3ccccc3nc21 | -5.1%
COc1c(Cl)cc(Cl)cc1/C=C(\C#N)c1nc2ccccc2[nH]1 | 20µM*
O=C(c1ccco1)N1CCN(c2nc3ccc(Cl)cc3s2)CC1 | 0.4%
CCc1cc(=O)oc2cc(C)c3c(-c4ccc(F)cc4)coc3c12 | ?
O=C(CN1CCCN(Cc2ccccc2F)S1(=O)=O)Nc1ccc(F)c(Cl)c1 | 0.0%
O=C(Nc1cc2c(cc1C(=O)c1ccccc1Cl)OCCO2)c1ccc(Br)cc1 | 1.1%
O=C(CN1CCN(C2CCCCC2)C(=O)C1=O)Nc1ccc(Cl)cc1 | -0.6%
O=C(Cn1cnc2onc(-c3ccc(F)cc3)c2c1=O)Nc1cccc(C(F)(F)F)c1 | -3.4%
Cc1ccc(C(=O)CSc2ncc3c(n2)-c2ccccc2N(Cc2ccc(Cl)cc2)S3(=O)=O)cc1 | ?
Cc1cccc(NC(=O)CN2C(=O)COc3ccc(S(=O)(=O)Nc4ccccc4)cc32)c1C | -1.8%

Screening data (PubChem BioAssay)
